# High-throughput results (PubChem BioAssay)
# Mtb hypoxia inh = inhibitors of hypoxia-regulated fluorescent reporter in Mycobacterium tuberculosis. M. tuberculosis hypoxia-regulated fluorescent reporter, fluorescence. fluorescence inhibition, % (concentration not given with the values). 0.1% of 300,000 active;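 active = 35 to 45% if threefold the growth effect, above 45% if 1.5-fold the growth effect; inactive = the rest, general growth blockers included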;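 note: wells of about 50 µL received 100 nL stock; 0% = vehicle wells and 100% = reference inhibitor wells; whole bacteria with a GFP reporter of the hypoxia response; strong numbers were not always called active; many hits fall short of the cut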
# BJeLR viability = kills HRASV12-expressing BJeLR cells | 0.17% of 300,000 active | AID 1554 | BJeLR (HRASV12) viability, CellTiter-Glo ATP luminescence, 48 h; reference of the scale not given here | inhibition, % (concentration not given with the values);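 active = replicate mean above 50%; inconclusive = above 50% but judged a plate artefact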;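 note: 50 nL library stock added to about 25 µL; numbers are from one replicate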
# Sa ugtP lethal = growth inhibition of S. aureus ugtP deletion strain; S. aureus RN4220 ugtP deletion, OD600 growth, 16 h; some inactives read as strong as hits; growth inhibition, % (concentration not given with the values); 0.54% of 330,000 active; AID 1259309;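 active = z-score under -3 and OD600 up to 0.15 on both plates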;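 note: plate controls were untreated wells for no effect and antibiotic for full effect; wells of about 80 µL received 100 nL stock; the first replicate is given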
# Sa RN4220 lethal = S. aureus RN4220 growth inhibition; OD600, 16 h; inhibition, % (test concentration not listed); 0.33% of 330,000 active; AID 1259311;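 active = z-score of -3 or lower and OD600 up to 0.18 on both plates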;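 note: plate controls were untreated cells for no effect and reference antibiotic for full effect; stock transfer was 100 nL into about 80 µL; one replicate is shown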
# Bead autofluor = counter-screen for toxin protease inhibitors: compound fluorescence; compound autofluorescence counterscreen, microsphere flow cytometry; stronger effect = higher value; fluorescence intensity (test concentration not listed); 3.1% of 360,000 active; AID 624483;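 active = at least 3 SD above the mean of all compounds, about 16000 in these data; inconclusive = too few beads counted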;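 note: 100 nL of 1 mM stock went into each well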
# PrP 5UTR inh = suppresses PrP 5' UTR mRNA reporter expression; cell-based PrP 5' UTR mRNA reporter, plate reader; inhibition, % (test concentration not listed); 0.35% of 340,000 active; AID 488862;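 active = every replicate at 50% or more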;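 note: 0 = median of the neutral control wells; tested in H4 reporter cells; numbers are from one replicate; inactives centre near -14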
# Mtb hypoxia inh growth = further read-out of Mtb hypoxia inh, marked with its call; growth inhibition, %; measured here: M. tuberculosis growth (absorbance);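 0% = vehicle and 100% = reference antibiotic; read after six days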
# Numbers without * were called inactive; u = inconclusive; x = not tested or not shown; & = joins results of further samples. Not a hit list; any-hit rate near 4%.
SMILES,Mtb hypoxia inh,Mtb hypoxia inh growth,BJeLR viability,Sa ugtP lethal,Sa RN4220 lethal,Bead autofluor,PrP 5UTR inh
CC1=C(C(=O)OCC2CCCO2)C(c2ccc(C)cc2)C2=C(CCCC2=O)N1 (configuration not stated),-1.6,18.2,1.4,2.1,1.8,4218,1.6
COC(=O)c1ccccc1NC(=S)NC(=O)COc1ccc(C(C)C)cc1,7.4,8.4,-24.4,-13.8,-3.8,2006,0.6
Cc1ccc(N2C(=O)N(CC(=O)NC(N)=O)C(=O)C2C)cc1 (configuration not stated),16.5,5.5,2.5,6.2,3.3,3290,6.3
Cn1c(NNC(=O)c2c(F)cccc2F)cc(=O)n(C)c1=O,-3.8,3.1,-7.1,2.0,3.1,3495,-23.5
CCOC(=O)C1=C(C)N=c2sc(=Cc3ccc(OC(C)=O)c(OCC)c3)c(=O)n2C1/C=C/c1ccccc1 (configuration not stated),0.8,0.5,x,-3.3,3.3,x,x
Cc1c(C(=O)C(=O)NCC2CCCO2)c2ccccc2n1C (configuration not stated),3.2,5.9,12.0,0.6,1.9,4927,-6.0
Cc1ccccc1C(=O)Nc1sc(C)c(C)c1C(=O)c1ccccc1,4.8,5.3,1.3,29.3,-5.1,9972,-21.7
C=CCNC(=S)N1CCN(Cc2ccccc2)CC1,7.1,-1.1,1.3,15.0,5.1,4159,14.0
CCc1ccccc1NC(=O)c1ccc(CN2CCC(Cc3ccccc3)CC2)cc1,6.9,2.8,-0.2,-3.7,-11.4,3061,-3.1
Cc1sc(NC(=O)Cc2ccc3c(c2)OCO3)nc1-c1ccc2c(c1)CCN2C(=O)c1ccc(F)cc1,2.6,-0.3,12.1,-15.9,10.2,2056,-18.8
COc1ccc(S(=O)(=O)Nc2cccc(-c3ccc4nncn4n3)c2)cc1,10.8,14.2,27.1,6.2,0.4,u,-24.7
COc1cc(O)c(CC=C(C)C)c(O)c1C(=O)CCc1ccc(O)cc1,x,x,-6.7,91.6*,72.5,5502,-11.1
CC(C)CC(NC(=O)C(NC(=O)C1OC2OC(C)(C)OC2C2OC(C)(C)OC12)C(C)C)C(=O)O (configuration not stated),8.7,-2.0,3.3,-5.3,4.8,4089,-23.9
C=CCc1cccc(C=NNC(=O)CNc2cccc3ccccc23)c1O,-2.3,-3.1,x,-13.4,-8.9,x,x
O=C(c1ccc(S(=O)(=O)N2CCCCC2)cc1)N1CCCC(C(F)(F)F)C1 (configuration not stated),-1.7,1.5,-2.1,5.4,1.7,6334,-17.8
Cn1c(=O)c2c(nc(CN3CCN(Cc4ccccc4)CC3)n2Cc2ccc(F)cc2)n(C)c1=O,-8.4,7.1,11.8,-0.1,14.5,6409,-9.1
CSc1ncccc1C(=O)OCC(=O)NC1CCCc2ccccc21 (configuration not stated),9.9,10.7,x,-3.7,-0.9,3962,-34.1
O=C(Cn1[nH]c(=O)c2ccccc2c1=O)OCC(=O)c1ccc(F)cc1,-2.8,25.1,-1.1,-0.6,0.8,u,-4.8
O=C(O)CC1SC(=NN=Cc2ccc(Br)cc2)N(c2ccccc2)C1=O (configuration not stated),9.0,4.4,x,5.8,1.0,x,x
Cc1ccc(C)c(C(=O)CN2C(=O)NC3(CCCCCCC3)C2=O)c1,2.3,-2.2,-3.0,5.1,-2.8,3179,-12.7
COc1cc2[nH]c(=S)nc(NCCC(C)C)c2cc1OC,4.3,-7.9,1.1,5.6,2.9,2482,-13.0
CN(C)S(=O)(=O)c1cccc(N=C2SCCN2Cc2ccccc2)c1,12.9,-5.5,2.0,10.2,0.6,4551,-6.6
COc1ccccc1OCC(=O)Nc1ccc(Cl)cc1C(=O)c1ccccc1,-6.1,-4.4,-7.0,34.3,2.6,23660*,-17.1
O=C(O)C1CCN(C(=O)c2ccco2)CC1,11.9,5.4,1.4,5.2,6.2,3482,-6.5
OC(CNCC(c1ccco1)N1CCCCC1)c1ccccc1 (configuration not stated),14.1,8.7,-2.5,4.3,2.6,6250,41.2
COCC1CCN(C(=O)C2CCC(=O)N(Cc3ccc(Cl)cc3)C2)CC1 (configuration not stated),10.7,9.7,-5.0,9.0,6.2,5892,-24.9
O=C(c1ccco1)N1CCN(c2ccccc2F)CC1,23.6,23.0,8.6,-11.0,-3.8,2867,-17.2
CN(C)CCCNC(=O)C[C@H]1C[C@H](C(=O)N2CCOCC2)[C@@]2(CCC3CCCC3)c3[nH]c4cc(CCC(=O)N(C)C)ccc4c3CCN2C1=O,4.6,0.6,x,9.5,-5.2,3688,-22.3
Cc1cc(C)c(S(=O)(=O)NCc2cccs2)cc1C,2.1,-10.0,3.2,5.0,6.6,5943,-22.5
Oc1ccc(-c2nnc(SCC3CCCCC3)o2)cc1,-8.0,1.8,-5.7,2.4,-4.7,9310,-49.5
O=C(O)c1ccc(NS(=O)(=O)c2ccc3c(c2)OCCO3)cc1,x,x,5.7,9.2,2.1,6278,-23.4
CC(/C=C/c1ccccc1)=NNC(=O)Cn1cncn1,9.6,15.9,x,10.6,1.0,x,x
Cc1cc(=O)[nH]c(NN=Cc2c(C)nn(-c3ccccc3)c2Cl)n1,14.8,13.0,x,10.5,4.4,x,x
O=C(COC(=O)c1cnc(Cl)c(Cl)c1)NCc1cccs1,7.8,5.4,-2.5,3.3,1.7,3606,-2.0
COC(=O)c1ccc(C23CC4(C2)[C@H](CN(Cc2cccnc2)[C@@H]4c2ccccc2)C3c2ccc(Cl)nc2)cc1 (some centres not stated),x,x,6.2,x,x,3830,-17.3
C=CCCC(Cc1ccc(F)cc1)C(=O)OCCNC(=O)C(CC=C)CC(=O)NC(CO)Cc1ccccc1 (configuration not stated),9.2,7.2,x,7.0,-0.1,x,x
Cc1ccc(-n2nnc3c(=O)n(CC(=O)OCc4ccccc4)cnc32)cc1,1.8,4.9,-12.2,0.2,0.4,4692,3.8
CC(C)(C)C(=O)Nc1cc(NC(=O)C(C)(C)C)cc(C(=O)NNC(=O)c2ccncc2)c1,-8.1,2.5,0.5,-0.6,-2.9,4487,-15.5
Cc1ccc(SCc2cn3c(C)cc(C)nc3n2)cc1,10.4,9.0,1.6,1.2,3.9,5919,-11.4
COc1cc(NC(=O)CCC2CCCC2)cc(-n2cnnn2)c1,-4.6,1.0,-11.1,-6.3,-4.5,2123,-26.7

# Given as tab-separated lines: four of the compounds above.
SMILES	Mtb hypoxia inh	Mtb hypoxia inh growth	BJeLR viability	Sa ugtP lethal	Sa RN4220 lethal	Bead autofluor	PrP 5UTR inh
CC1=C(C(=O)OCC2CCCO2)C(c2ccc(C)cc2)C2=C(CCCC2=O)N1 (configuration not stated)	-1.6	18.2	1.4	2.1	1.8	4218	1.6
COC(=O)c1ccccc1NC(=S)NC(=O)COc1ccc(C(C)C)cc1	7.4	8.4	-24.4	-13.8	-3.8	2006	0.6
CC(/C=C/c1ccccc1)=NNC(=O)Cn1cncn1	9.6	15.9	x	10.6	1.0	x	x
Cc1cc(=O)[nH]c(NN=Cc2c(C)nn(-c3ccccc3)c2Cl)n1	14.8	13.0	x	10.5	4.4	x	x

# Later entries:
SMILES,Mtb hypoxia inh,Mtb hypoxia inh growth,BJeLR viability,Sa ugtP lethal,Sa RN4220 lethal,Bead autofluor,PrP 5UTR inh
CCSc1ccc(C(=O)Nc2ccc(Br)cn2)cc1[N+](=O)[O-],3.2,11.3,1.9,5.5,10.6,19284*,-25.6
O=C1c2ccccc2C(=O)N1OCc1ccc(Cl)cc1,0.4,0.0,-7.9,-4.5,-3.7,3093,-10.5
CC(C)Cn1c(SCC(=O)O)nnc1-c1cccc(S(=O)(=O)N2CCOCC2)c1,19.0,6.1,x,-0.4,-1.4,3687,-32.1
COCCNC(=O)C(c1ccc(C)cc1)N(CCOC)C(=O)CCC(=O)Nc1nccs1 (configuration not stated),3.8,3.1,-6.6,1.6,1.8,3829,-17.3
COc1ccc(OC)c(NC(=O)COC(=O)CC2CCCCC2)c1,-0.7,7.0,x,1.5,3.9,3811,2.9
O=C(NCc1ccco1)/C(=C/c1ccccc1F)NC(=O)c1ccccc1,-7.6,-7.4,-3.3,-2.7,3.6,4145,4.9
Cc1nn(CCC#N)c2c1P(=S)(N1CCCC1)OC(c1ccc(F)cc1)=N2 (configuration not stated),6.0,8.8,-0.6,15.0,5.5,9693,-8.4
N#CC(C(=O)Nc1ccc(Cl)cc1)=C1Nc2ccccc2N1,8.9,9.9,8.0,-19.8,5.5,3189,-35.8
Cc1ccc[n+](-c2nc3ccccc3nc2C(=C=[N-])C#N)c1,14.6&5.8,0.2&-0.3,-2.9&2.5,-0.1&3.4,3.1&-1.5,4603&2873,-41.2&-14.9
COC(=O)CCC(=O)N1CCC(CCC(=O)NCc2ccc(F)cc2)CC1,-1.6,10.9,-4.8,5.9,4.1,3237,-10.1
Cc1noc(C)c1C(=O)OCC(=O)c1c(N)n(CC(C)C)c(=O)n(C)c1=O,17.2,12.0,5.0,6.8,4.0,3730,-13.9
O=C(/C=C/c1ccc(Cl)cc1)N1CCN(c2ccccc2[N+](=O)[O-])CC1,6.2,0.6,2.4,-10.8,22.6,2482,-18.6
Cc1cc(NC(=O)CSc2ncc(CO)n2Cc2ccc(F)cc2)no1,11.4,8.0,9.8,10.1,1.7,5485,-27.4
O=C(Nc1ccon1)c1ccc(S(=O)(=O)N2CCCCCC2)cc1,7.7,3.6,-1.5,0.4,6.9,2898,-14.4
CNC(=O)/C(C#N)=C/c1c(N2CCCCCC2)nc2ccccn2c1=O,3.8,3.2,-14.4,4.9,0.7,4156,-5.8
O=C(NCc1ccccn1)c1ccc(OC2CCN(Cc3ccccc3O)CC2)cc1,7.9,10.8,-4.6,6.0,0.0,4526,-14.4
Cc1ccc(OCC(=O)N(C)CCc2ccccn2)cc1,2.9,7.8,-1.9,3.0,4.5,24016*,-12.0
COc1ccc(-n2c(C)cc(C=O)c2C)cc1Cl,x,x,3.6,3.2,0.4,5316,-9.3
c1ccn(-c2ncnc3sc4c(c23)CCCC4)c1,x,x,x,8.3,3.1,4521,-16.9
O=c1[nH]c(=S)[nH]c2c1C(c1cc([N+](=O)[O-])c(N3CCOCC3)cc1N1CCOCC1)O2 (configuration not stated),18.2,3.4,-8.7,2.5,0.4,4646,-20.6
Fc1ccc(CNC(=S)NCc2cccc(Cl)c2)cc1,2.0,2.0,-4.2,-19.3,-13.1,4875,-2.3
CCOc1ccc(CCNC(=O)C2CCN(c3ccc(N4CCOCC4)nn3)CC2)cc1OCC,-2.8,2.9,-0.7,2.0,1.1,8236,x
COc1ccc(CC(=O)Nc2nccs2)cc1OC,-4.5,-2.4,14.4,-5.9,2.0,2399,-10.0
C=CCSc1nnc(NC(=O)CSc2nc3ccccc3o2)s1,x,x,-0.7,-8.2,-1.5,4896,0.3
O=C(Cn1ncc2c3ccccc3n(Cc3ccccc3F)c2c1=O)NC1CC1,4.5,-1.3,-2.2,7.5,1.7,5612,-15.0
COc1ccc(/C=C2/SC(=O)N(CCNC(=O)C3CCCN3C(=O)c3cccs3)C2=O)cc1 (configuration not stated),9.0,-3.6,7.1,-20.7,2.8,2620,-20.3
CCN1CCN(S(=O)(=O)c2ccc(Cl)c(C(=O)N(CC)CC(=O)Nc3ccc(OC)cc3)c2)CC1,-1.5,-16.0,5.5,4.5,2.7,5007,-23.7
Cn1c(SCc2cc(=O)[nH]c(C(C)(C)C)n2)nnc1C(F)(F)F,5.8,2.1,5.3,6.8,3.6,3965,-17.8
Cc1nnc(NC(=O)CSc2ccc(-c3ccc(Cl)cc3)nn2)s1,2.8,15.4,-7.2,5.0,6.1,3693,-31.7
COc1ccc(N2CCn3c2nc2c3c(=O)n(CCc3ccccc3)c(=O)n2C)c(OC)c1,-64.5,20.9,-4.8,-3.1,5.0,x,x
CCN(C(=O)Cc1c(C(=O)O)n(C)c2ccccc12)c1ccc(F)cc1,5.4,-11.6,-6.6,8.0,6.8,4551,-23.9
CCOc1cc(C)c(Cl)cc1S(=O)(=O)NCC1CCCO1 (configuration not stated),x,x,0.2,-9.9,-2.3,2622,-4.2
O=C(Nc1cccnc1)c1cc(S(=O)(=O)N2CCCCC2)c(Cl)cc1Cl,11.3,2.4,4.4,24.1,-2.8,3645,-21.1
COc1ccc(CN2C(=O)C(O)(CC(=O)c3ccc4c(c3)OCO4)c3ccccc32)cc1OC (configuration not stated),9.2,4.3,-14.2,-5.4,5.3,22009*,8.3
CC1(C)Oc2ccc3ccc(=O)oc3c2[C@H](O)[C@H]1O,5.8,4.7,x,-4.6,-7.8,4094,15.2
